Screening data (PubChem)
AID504770: growth inhibition of E. coli YBA685, primary screen, V. cholerae RctB inhibitors | E. coli YBA685 rctB-dependent plasmid, OD600 growth, 3 h; stronger effect = lower value | z-score (concentration not given with the values) | actives 0.27% (n = 130,000) | AID 504770, 2011;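 active = z-score under -2 on both plates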;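 note: wells of about 30 µL received 100 nL stock; score is relative to mean and SD of the test wells; the first replicate is given; strong numbers were not always called active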
Ba CapD inh: Bacillus anthracis CapD inhibitors, primary screen, biochemical, fluorescence intensity. purified CapD enzyme, fluorescence intensity read-out; stronger effect = lower value; some hits fall short of the stated cut. actives 0.23% (n = 140,000). AID 492967, 2010. CapD gamma-glutamyltranspeptidase (Bacillus anthracis Ames Ancestor). z-score (concentration not given with the values);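 active = z-score under -4 in either of two replicates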;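 note: stock transfer was 100 nL into about 40 µL; score is relative to mean and spread of the plate; one replicate is shown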
An asterisk follows results filed as active.

Results for CC(C)C(NS(=O)(=O)c1ccc2c(c1)C(C)(C)C(=O)N2C)C(=O)NCc1ccc(F)cc1 (stereo not given) ?
AID504770: 0.2; Ba CapD inh: 0.685

What do the screens show for `O=C(CCc1nc2cccnc2n1Cc1cccs1)Nc1ccc2c(c1)OCCO2`?
AID504770: -1.4; Ba CapD inh: 4.8

Results for COc1cc2ccccc2cc1C(=O)OCC(=O)NC1CC1 ?
AID504770: 0.25; Ba CapD inh: 40

What do the screens show for `Cc1ccc(S(=O)(=O)N2CCOC2=O)cc1`?
AID504770: -0.7; Ba CapD inh: -0.255

Results for N#Cc1cc2ccc(O)cc2oc1=N ?
AID504770: -1.6; Ba CapD inh: 13.1

What do the screens show for `COc1ccc(NC(=S)NCC2CCCO2)cc1` (stereo not given)?
AID504770: 1.5; Ba CapD inh: 10.6

Results for COc1ccc(CN2C(=O)c3cccnc3C2=O)cc1S(=O)(=O)NCc1ccc(C)cc1 ?
AID504770: -0.6; Ba CapD inh: -0.145

Results for CCN1CCCC1CNC(=O)c1ccccc1Oc1ccccc1 (stereo not given) ?
AID504770: -0.45

How did Nc1nc2c3ccccc3nc(C3CC3)n2n1 do in these assays?
AID504770: -0.9; Ba CapD inh: 1.5

Results for OC(CN1CCCCCC1)Cn1c(-c2ccccc2)c(-c2ccccc2)c2ccc3ccccc3c21 (stereo not given) ?
Ba CapD inh: -0.2

Results for NNC(=O)c1cc(COc2c(Cl)cccc2Cl)on1 ?
AID504770: -1.3; Ba CapD inh: 9.62

Results for NC(=O)C(c1cccc(C(F)(F)F)c1)c1ncc(C(F)(F)F)cc1Cl (stereo not given) ?
Ba CapD inh: -0.795

How did Cc1cccc(C)c1NC(=O)Cn1c(-c2ccc3c(c2)OCO3)cn(-c2ccccc2)c1=O do in these assays?
AID504770: -0.45; Ba CapD inh: -0.02

How did S=C(NCCN1CCOCC1)Nc1ccc(Cl)cc1 do in these assays?
AID504770: 2; Ba CapD inh: -0.465

How did Brc1ccc(OCc2nnc3n2CCC3)cc1 do in these assays?
AID504770: -0.5; Ba CapD inh: -0.245

How did COc1ccc(N(CC(=O)NCCSc2ccc(Cl)cc2)S(=O)(=O)c2ccccc2)c(OC)c1 do in these assays?
Ba CapD inh: 0.445

Results for CC1(C)COC(=O)C1OC(=O)c1ccccc1C(=O)O (stereo not given) ?
AID504770: 0.2; Ba CapD inh: -0.775

How did COC(=O)CSc1nc2sc3c(c2c(=O)n1-c1ccccc1)CC(C)(C)OC3 do in these assays?
Ba CapD inh: -0.94

How did S=C(NCc1cccnc1)Nc1ccccc1Cl do in these assays?
Ba CapD inh: 0.24

How did COc1ccc(N2C(=O)CC(Sc3nc4c(cc3C#N)CC(C)CC4)C2=O)cc1 (stereo not given) do in these assays?
Ba CapD inh: 1.03

Arranged by count of non-hydrogen atoms (lowest first): 3 of the compounds above
What do the screens show for `Cc1ccc(S(=O)(=O)N2CCOC2=O)cc1`?
AID504770: -0.7; Ba CapD inh: -0.255

How did S=C(NCCN1CCOCC1)Nc1ccc(Cl)cc1 do in these assays?
AID504770: 2; Ba CapD inh: -0.465

Results for CC(C)C(NS(=O)(=O)c1ccc2c(c1)C(C)(C)C(=O)N2C)C(=O)NCc1ccc(F)cc1 (stereo not given) ?
AID504770: 0.2; Ba CapD inh: 0.685

(more compounds)
How did Cc1cc(C(=O)CCC(=O)O)ccc1F do in these assays?
AID504770: -0.7

What do the screens show for `COC(=O)Cn1cc(C(=O)OC)c2ccccc21`?
AID504770: 0.1

What do the screens show for `Cc1cc(C2C(C#N)=C(N)N(c3ccc([N+](=O)[O-])cc3Cl)C3=C2C(=O)CCC3)c(C)s1` (stereo not given)?
Ba CapD inh: 0.33

What do the screens show for `CCN1C(=O)CC(c2ccccc2)=Nc2ccccc21`?
Ba CapD inh: -0.91

Results for c1ccc(-c2nnc(N3CCCC3)nc2-c2ccccc2)cc1 ?
AID504770: 1.15; Ba CapD inh: -0.83

What do the screens show for `O=C1Nc2ccccc2C(=O)C1=Ic1ccccc1`?
AID504770: -0.65; Ba CapD inh: 1.19

How did FC(F)(F)c1ccc(-c2nn[nH]n2)cc1 do in these assays?
Ba CapD inh: -0.245

Results for O=C(NNc1ccccc1C(F)(F)F)c1cccs1 ?
AID504770: -0.9; Ba CapD inh: 0.635

Results for CC(=O)Nc1nc(CC(C)C)cc(-c2ccco2)c1C#N ?
AID504770: 0.2; Ba CapD inh: 101

How did CN(C)C(=O)COC(=O)c1ccc(-c2ccc(C(=O)OCC(=O)N(C)C)s2)s1 do in these assays?
AID504770: 1.25

Quoted at random: 2 compounds from above.
How did FC(F)(F)c1ccc(-c2nn[nH]n2)cc1 do in these assays?
Ba CapD inh: -0.245

Results for O=C(NNc1ccccc1C(F)(F)F)c1cccs1 ?
AID504770: -0.9; Ba CapD inh: 0.635

Next section
What do the screens show for `CC1=CC(C)C(C2OC(C)C(C)O2)C(C)C1` (stereo not given)?
AID504770: -0.6

What do the screens show for `Cc1ccc(N=C2SC(C(=O)Nc3cccc(C#N)c3)C(N)=C2C(=O)N2CCCC2)c(C)c1` (stereo not given)?
AID504770: -0.9

What do the screens show for `O=[N+]([O-])c1ccc(Nc2nc(NCCN3CCOCC3)nc(N3CCOCC3)n2)cc1`?
Ba CapD inh: -1.77

How did Nc1ccc(NS(=O)(=O)c2ccccc2)cc1 do in these assays?
AID504770: -0.65; Ba CapD inh: 18.9

Results for O=C(O)c1[nH]c2ccccc2c1C=NCc1ccccc1Cl ?
AID504770: -2.65; Ba CapD inh: -0.015

What do the screens show for `Cc1nn(C(=O)CCN2C(=O)c3ccccc3C2=O)c(C)c1Br`?
Ba CapD inh: -0.22

Results for Cc1cc(-n2c(=S)sc3c(=O)[nH]c(SCC(=O)NCc4ccco4)nc32)ccc1Cl ?
Ba CapD inh: 0.045

How did Cc1onc(-c2ccccc2Cl)c1C(=O)N1CCN=C1SCc1ccccc1F do in these assays?
AID504770: -1.55

Results for CNc1ccc(O)cc1 ?
AID504770: 1.05; Ba CapD inh: -0.585

What do the screens show for `Cn1c2ccccc2c2c(C(=O)NCc3ccco3)cn(C3CCCCC3)c(=O)c21`?
AID504770: -0.2; Ba CapD inh: 64.6

What do the screens show for `COC(=O)c1ccc(OCc2ccnc(Cl)c2)cc1`?
Ba CapD inh: -0.18

What do the screens show for `O=C(CSc1cccc[n+]1[O-])N1c2ccccc2Sc2ccccc21`?
AID504770: -2.65; Ba CapD inh: -0.49

Results for COc1cccc(C(=O)Nc2c3c(nn2-c2ccc(C)cc2)CS(=O)C3)c1 (stereo not given) ?
AID504770: 0.8; Ba CapD inh: 0.325

What do the screens show for `O=C1OCCC1Sc1nc2ccccc2[nH]1` (stereo not given)?
AID504770: 1.75

Results for CCOC(=O)Cn1c(=O)c(-c2nc(C(C)(C)C)cs2)cn(C(C)C)c1=O ?
AID504770: -0.55; Ba CapD inh: 35.5

How did O=C(CCN1CCOCC1)Nc1cc(C(=O)NCCC2=CCCCC2)ccc1N1CC2CC(C1)c1cccc(=O)n1C2 (stereo not given) do in these assays?
Ba CapD inh: 0.01

How did CC(=O)N1CC(=O)N/C(=C\c2cccnc2)C1=O do in these assays?
AID504770: -0.35; Ba CapD inh: -0.865

How did Cc1ccc(NC(=O)Cn2cnc3sc(C(=O)Nc4ccc5c(c4)OCCO5)c(C)c3c2=O)cc1Cl do in these assays?
Ba CapD inh: -0.825

Results for CCOC(=O)c1c(Nc2nc(-c3cc4ccccc4o3)cs2)sc(C)c1C ?
AID504770: 1.15

What do the screens show for `CC1=Nc2cc(C(=O)NCc3ccc(C)cc3)ccc2Sc2ccccc21`?
AID504770: -0.55; Ba CapD inh: 0.32

Results for O=C1c2ccccc2C(=O)c2cc(S(=O)(=O)N(C3CCCCC3)C3CCCCC3)ccc21 ?
Ba CapD inh: -0.545

Results for COc1ccc(N2CCN(c3ncnc4c3cnn4-c3ccc(C)cc3C)CC2)cc1 ?
Ba CapD inh: -0.59

What do the screens show for `NNC(=O)c1cc2cc(OCc3ccccc3)ccc2[nH]1`?
Ba CapD inh: 49.2

Results for O=C(Nc1cc(Cl)cc(Cl)c1)NC1Cc2ccccc2C1 ?
Ba CapD inh: 0.265

How did O=C(NC(Cc1ccccc1)C(=O)Nc1ccc([N+](=O)[O-])cc1)c1ccsc1 (stereo not given) do in these assays?
Ba CapD inh: -0.915

How did O=C(c1ccc2nc3ccc(Cl)cc3c(=O)n2c1)N1CCCCCC1 do in these assays?
AID504770: 0.3; Ba CapD inh: 29.6

How did COCCN(C(=O)CCC(=O)N1CCN(C(c2ccccc2)c2ccccc2)CC1)C1CCN(C)CC1 do in these assays?
Ba CapD inh: -0.12

Results for O=C(CN1C(=O)C2C3C=CC(C3)C2C1=O)NCCc1ccccc1 (stereo not given) ?
AID504770: 0.3; Ba CapD inh: -1.1

What do the screens show for `CN1CCN(CCSc2ccc(Cl)cc2)CC1`?
AID504770: 0.35

Results for Nc1nonc1NC(=O)CSC1=NCCS1 ?
AID504770: 0.65; Ba CapD inh: -0.175

How did CC(C)(C)c1ccc2c(c1)CN(C1CCCCC1)CO2 do in these assays?
AID504770: -0.25; Ba CapD inh: 0.17

How did CN(C)S(=O)(=O)c1cccc(C(=O)N2CCc3ccccc3C2)c1 do in these assays?
AID504770: -0.95; Ba CapD inh: -0.175

Results for Cc1ccccc1C(=O)NNC1=NCCC1 ?
AID504770: 1.95

Results for CC(C)(C)c1nc2scc(-c3cccs3)c2c(=O)o1 ?
Ba CapD inh: 0.41

How did COc1ccc(C2C(C(=O)N3CCN(c4ccc(F)cc4)CC3)CCC(=O)N2c2ccc(OC)cc2)cc1 (stereo not given) do in these assays?
AID504770: -1.2; Ba CapD inh: 0

How did Cc1cccc(Nc2cc(=O)[nH]c(=O)[nH]2)c1C do in these assays?
AID504770: -0.1; Ba CapD inh: 0.46

Results for CCOC(=O)C1=C(C)N=c2s/c(=C\c3cc(Br)cc(OC)c3O)c(=O)n2C1c1ccccc1OC (stereo not given) ?
Ba CapD inh: -1.5

How did O=C1C(c2ccccc2)=C(N=CNO)c2ccccc21 do in these assays?
AID504770: -0.65; Ba CapD inh: -0.755

Results for Cc1noc(C)c1CCNC(=O)C1CCN(c2ccccc2)C1=O (stereo not given) ?
AID504770: 0.65; Ba CapD inh: 0.52

How did O=C(NC1=NN(c2ccccc2)CC1)Nc1ccccc1F do in these assays?
AID504770: 0.45

Results for CC(=O)N1N=C(c2cccs2)CC1c1cn(-c2ccccc2)nc1-c1ccc(C)cc1 (stereo not given) ?
Ba CapD inh: 0.975

How did O=C1CNC(=S)N1Cc1ccco1 do in these assays?
Ba CapD inh: -1.04

Results for Cc1sc2nc(CC#N)[nH]c(=O)c2c1C ?
AID504770: -0.4; Ba CapD inh: 0.015

How did CCCn1c(CNC(=O)CC)nc2ccccc21 do in these assays?
AID504770: -0.5; Ba CapD inh: 0.355

Results for CSC1=NC(=Nc2ccc(C)cc2)C2(CCC(C(C)(C)C)CC2)N1c1ccc(O)cc1 (stereo not given) ?
Ba CapD inh: -0.295

How did CCN1C(=O)/C(=C2\SC(=S)N(C(C)C)C2=O)c2ccccc21 do in these assays?
AID504770: 0.35; Ba CapD inh: 0.135

How did CCCCC(C(N)=O)C1=NC(C)(C)Cc2ccccc21 (stereo not given) do in these assays?
AID504770: -0.2; Ba CapD inh: 11.9

Results for Cc1ccc(S(=O)(=O)c2c(C)cc(C)[nH]c2=O)cc1 ?
AID504770: 0.05; Ba CapD inh: 1.52

How did COc1cc2c3c(c1OC)C1(C=CC(=O)C=C1)CC3NCC2 (stereo not given) do in these assays?
AID504770: 0.65; Ba CapD inh: 11.4

Results for COC(=O)CC(NC(=O)Nc1ccc(C)cc1)c1cccc([N+](=O)[O-])c1 (stereo not given) ?
Ba CapD inh: -0.485

Next part, starting with the last 4 of the part before.
How did CCCCC(C(N)=O)C1=NC(C)(C)Cc2ccccc21 (stereo not given) do in these assays?
AID504770: -0.2; Ba CapD inh: 11.9

Results for Cc1ccc(S(=O)(=O)c2c(C)cc(C)[nH]c2=O)cc1 ?
AID504770: 0.05; Ba CapD inh: 1.52

How did COc1cc2c3c(c1OC)C1(C=CC(=O)C=C1)CC3NCC2 (stereo not given) do in these assays?
AID504770: 0.65; Ba CapD inh: 11.4

Results for COC(=O)CC(NC(=O)Nc1ccc(C)cc1)c1cccc([N+](=O)[O-])c1 (stereo not given) ?
Ba CapD inh: -0.485

How did c1ccc(-c2ccnc3nc(N4CCN(c5ccccc5)CC4)nn23)cc1 do in these assays?
Ba CapD inh: -0.535

Results for CC(C)CC(=O)Nc1c(-c2ccc(F)cc2)nc2ccccn12 ?
AID504770: -1; Ba CapD inh: 47.3

How did Oc1[nH]c2ccccc2c1C=Nc1cccc(Cl)c1 do in these assays?
AID504770: 1.35; Ba CapD inh: -0.41

What do the screens show for `Cn1cccc1C(=O)OCC(=O)C12CC3CC(CC(C3)C1)C2`?
AID504770: -0.85

How did O=C(O)CCCC(=O)N1N=C(c2ccccc2)CC1c1ccccc1F (stereo not given) do in these assays?
Ba CapD inh: 0.43

How did COc1ccc(CC(N)C(=O)N[C@@H]2C(O)[C@H](n3cnc4c(N(C)C)ncnc43)O[C@@H]2CO)cc1 (stereo not given in full) do in these assays?
Ba CapD inh: -1.11

What do the screens show for `O=C(COC(=O)c1ccc(Cl)cc1NC(=O)c1ccc(Cl)cc1)c1ccccc1`?
AID504770: 0.65; Ba CapD inh: 0.12

What do the screens show for `COc1ccc(CC(=O)Nc2nnc(SCC(=O)c3ccccc3)s2)cc1`?
AID504770: -0.75; Ba CapD inh: -0.29

How did CCOc1ccc2oc(=O)cc(CN(C)Cc3ccccc3)c2c1 do in these assays?
AID504770: 0.4; Ba CapD inh: 1.47

Results for CC(C)(C)c1ccc(NC(=O)c2ccc(C(C)(C)C)s2)cc1 ?
AID504770: -1; Ba CapD inh: -0.25

How did Cc1ccc(OCC(=O)NN)cc1 do in these assays?
AID504770: 0.2; Ba CapD inh: 0.61

Results for Cc1nc2ccc3nc(NC(=O)c4ccc(S(=O)(=O)N5CCCC5)cc4)sc3c2s1 ?
Ba CapD inh: 1.33
